Screening data (PubChem BioAssay)
PrP 5UTR inh: inhibition of PrP 5' UTR reporter expression; cell-based PrP 5' UTR mRNA reporter, plate reader; inhibition, % (test concentration not listed); actives 0.35% (n = 340,000); AID 488862;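 active = every replicate at 50% or more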;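 also: 0 = median of the neutral control wells; tested in H4 reporter cells; numbers are from one replicate; inactives centre near -14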
ugtP null kill: growth inhibition of S. aureus ugtP deletion strain; S. aureus RN4220 ugtP deletion, OD600 growth, 16 h; some inactives read as strong as hits; growth inhibition, % (concentration not given with the values); actives 0.54% (n = 330,000); AID 1259309;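 active = z-score under -3 and OD600 up to 0.15 on both plates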;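 also: plate controls were untreated wells for no effect and antibiotic for full effect; wells of about 80 µL received 100 nL stock; the first replicate is given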
BJeLR lethal: BJeLR cell viability loss; BJeLR (HRASV12) viability, CellTiter-Glo ATP luminescence, 48 h; reference of the scale not given here; inhibition, % (no concentration beside the values); actives 0.17% (n = 300,000);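 active = replicate mean above 50%; inconclusive = above 50% but judged a plate artefact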;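 also: 50 nL library stock added to about 25 µL; numbers are from one replicate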
RN4220 kill: kills Staphylococcus aureus RN4220; S. aureus RN4220 growth, OD600, 16 h; inhibition, % (concentration not given with the values); actives 0.33% (n = 330,000); AID 1259311;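 active = z-score of -3 or lower and OD600 up to 0.18 on both plates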;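 also: plate controls were untreated cells for no effect and reference antibiotic for full effect; stock transfer was 100 nL into about 80 µL; one replicate is shown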
Autofluor counter: flagged as autofluorescent in microsphere protease counterscreen. compound autofluorescence counterscreen, microsphere flow cytometry; hits give high values. fluorescence intensity (no concentration beside the values). actives 3.1% (n = 360,000). AID 624483;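 active = at least 3 SD above the mean of all compounds, about 16000 in these data; inconclusive = too few beads counted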;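 also: 100 nL of 1 mM stock went into each well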
Mtb hypoxia rep: Mtb hypoxia fluorescent reporter inhibition; fluorescence inhibition, % (concentration not given with the values); AID 1159583; M. tuberculosis hypoxia-regulated fluorescent reporter, fluorescence; actives 0.1% (n = 300,000);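 active = 35 to 45% if threefold the growth effect, above 45% if 1.5-fold the growth effect; inactive = the rest, general growth blockers included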;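 also: wells of about 50 µL received 100 nL stock; 0% = vehicle wells and 100% = reference inhibitor wells; whole bacteria with a GFP reporter of the hypoxia response; strong numbers were not always called active; many hits fall short of the cut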
Mtb hypoxia rep growth: also measured in Mtb hypoxia rep; calls as there; growth inhibition, %; measured here: M. tuberculosis growth (absorbance);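 0% = vehicle and 100% = reference antibiotic; read after six days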
* marks the source's active call; other numbers are inactive results; ? = inconclusive; . = not tested or not shown.

SMILES	BJeLR lethal	ugtP null kill	RN4220 kill	PrP 5UTR inh	Mtb hypoxia rep	Autofluor counter	Mtb hypoxia rep growth
Nc1cccc2c1C(=O)N(C(=O)c1ccc(S(=O)(=O)N3CCCCCC3)cc1)C2=O	-3	3	-0.6	-12	.	2339	.
C=CCOn1c(=O)c(-c2ccccc2)[n+]([O-])c2ccccc21	0	2	8.4	-59	-4	4217	-2
Cc1ccc(NC(=O)C2CCN(C(=O)c3ccccc3C)CC2)cc1	10	11	4.8	0	-4	2097	3
COc1ccc(CNS(=O)(=O)c2ccc(-n3cnnn3)c(C)c2)cc1	1	5	0.8	-20	-1	3655	-2
CSc1ccc(/C=C/C(=O)OCC(=O)N2CCCCCC2)cc1	.	-1	4.3	-20	6	4457	10
Cc1ccc(S(=O)(=O)NC2CCCCCC2)cc1	.	5	3.5	-9	8	3428	2
Cc1ccc(-c2nn3c(C)nnc3s2)cc1NC(=O)c1ccco1	3	4	-1.7	-6	.	5615	.
O=C(Nc1ccc(Cl)cc1F)c1ccc(-n2cncn2)cc1	.	1	3.0	-42	1	5380	11

The listing continues:
SMILES	BJeLR lethal	ugtP null kill	RN4220 kill	PrP 5UTR inh	Mtb hypoxia rep	Autofluor counter	Mtb hypoxia rep growth
O=C(Oc1ccc(C(=S)N2CCOCC2)cc1)c1ccccc1F	-4	2	2.3	-1	-17	3544	-11
O=C(CSc1ncccn1)NNC(=O)c1ccccc1	2	10	0.6	-14	8	5551	5
CCOC(=O)c1ccc(Nc2c(OCC)c(=O)c2=O)cc1	-9	11	3.9	-9	-2	3631	10
Cc1cc(C)c(NC(=O)c2c[nH]c(=S)n2-c2ccc(F)cc2)c(C)c1	10	6	-0.3	-19	4	4507	-9
CCn1cc(C(=O)N2CCN(c3ccccc3F)CC2)c(=O)c2ccc(C)nc21	-2	8	5.4	-15	9	6072	4
Cc1ccc(C2OC(=O)C=C2c2ccccc2)cc1 (stereo not drawn)	0	4	4.9	-10	-1	3884	-3
Cc1ccc(-n2c(Cc3ccccc3)n[nH]c2=S)cc1	-3	-1	7.0	-42	4	22337*	3
CCOc1ccc(CCNC(=O)c2cccc(S(=O)(=O)N3CC(C)OC(C)C3)c2)cc1OCC (stereo not drawn)	6	3	0.7	-10	12	5452	5

(next part)
SMILES	BJeLR lethal	ugtP null kill	RN4220 kill	PrP 5UTR inh	Mtb hypoxia rep	Autofluor counter	Mtb hypoxia rep growth
Cc1cc(=O)n(CC(C)C)c(O)c1C#N	.	-8	1.2	-17	.	2504	.
O=C(Cn1cc2c(n1)CCCC2)Nc1cc(-c2cccc(Cl)c2)no1	-4	8	-9.7	-32	.	6381	.
COCCCNC(=O)c1c(N)n(-c2cccc(S(N)(=O)=O)c2)c2nc3ccccc3nc12	-11	5	0.3	-17	-6	3151	2
O=C(CSc1ccccc1)NCCc1ccc(F)cc1	3	-6	-5.3	-16	-11	3622	7
COc1ccccc1CN1CCNC(=O)C1CC(=O)NCCCN1CCCC1=O (stereo not drawn)	1	14	6.3	14	6	4311	1
C=C(C)C1CC=C(C)/C(=N\NC(=S)Nc2ccc(C)cc2)C1 (stereo not drawn)	-5	.	.	-20	.	2404	.
CCOc1ccc(OCC)c(NC(=O)c2[nH]c(C)c(C(C)=O)c2C)c1	6	5	-1.3	-14	.	?	.
Cn1c(=O)c2c(n3cnnc13)-c1ccccc1CC21CCCC1	0	11	5.7	-12	15	5035	7

The listing continues:
SMILES	BJeLR lethal	ugtP null kill	RN4220 kill	PrP 5UTR inh	Mtb hypoxia rep	Autofluor counter	Mtb hypoxia rep growth
C[C@@H]1C[C@H](O)c2cc(Cl)ccc2N1	-3	.	.	-23	.	2582	.
CCc1nn(C(CC)C(=O)NCc2cccc(OC)c2)c(=O)c2cc3occc3n12 (stereo not drawn)	-3	-1	3.8	-10	14	5529	4
COC(=O)c1ccccc1NC(=O)CN1CCC(C)CC1	4	7	4.5	0	6	4872	3
CC(C)C(NC(=O)C1CCC(C(C)(C)C)CC1)C(=O)NCCCN1CCCCC1 (stereo not drawn)	-1	1	-0.4	-35	5	.	6
Cc1cc(C(=O)Nc2cccnc2Cl)on1	-4	2	2.9	-13	7	8534	4
Cn1c(SCc2nc3ccccc3c(=O)[nH]2)nc2ccccc21	-5	1	6.0	-11	0	5170	2
CN(C)S(=O)(=O)CC12CCC(CC1=O)C2(C)C (stereo not drawn)	5	-1	0.0	-13	.	2843	.
COC(=O)c1ccc(NC(=O)CSc2nnc(C)n2CC2CCCO2)cc1 (stereo not drawn)	-6	0	2.1	-7	1	3773	2

(continued)
SMILES	BJeLR lethal	ugtP null kill	RN4220 kill	PrP 5UTR inh	Mtb hypoxia rep	Autofluor counter	Mtb hypoxia rep growth
C/C(=N/O)c1cc(C(C)(C)C)c(O)c(C(C)(C)C)c1	-1	.	.	-3	.	3175	.
CCOc1ccc(C(=O)OC2CCCN(C)C2)cc1 (stereo not drawn)	-1	8	4.2	-8	8	3837	2
CCC1CCc2c(sc3ncnc(N4CCOCC4)c23)C1 (stereo not drawn)	-5	3	5.4	-1	.	2721	.
COc1ccc2[nH]c3c(c2c1)CCN1C(=O)C(CC(=O)NCCCn2ccnc2)C[C@H](C(=O)N2CCCCC2)[C@@]31CCc1ccccc1 (stereo partly drawn)	.	4	2.3	-18	-12	3769	11
CCOc1ccc(S(=O)(=O)/N=C(/Nc2ccc(S(N)(=O)=O)cc2)c2ccccc2)cc1	.	5	5.1	-9	6	3504	5
O=C(NN1C(=O)C2C3C=CC(C3)C2C1=O)c1cccc(Cl)c1 (stereo not drawn)	4	5	2.2	-18	4	2159	7
Cc1onc(-c2ccccc2Cl)c1C(=O)Nc1cccc(S(=O)(=O)N2CCOCC2)c1	.	4	3.1	-8	7	.	-5
Cc1csc(NC(=O)c2ccc(Cl)cc2[N+](=O)[O-])n1	0	-8	1.6	-52	-9	4466	11

The results go on.
SMILES	BJeLR lethal	ugtP null kill	RN4220 kill	PrP 5UTR inh	Mtb hypoxia rep	Autofluor counter	Mtb hypoxia rep growth
CCN1CCN(c2ccc(S(=O)(=O)N3CCCCC3)cc2NC(=O)c2ccc(OC(F)F)cc2)CC1	-1	-1	0.3	-1	-11	5063	-10
O=C1CCC/C(=N/NC(=O)c2sc3ccccc3c2Cl)C1	-2	.	.	-36	.	3884	.
ON=Cc1ccccc1Oc1ccc(F)cc1	.	25	3.1	.	6	.	8
Cc1ccc(S(=O)(=O)NCCC2=CCCCC2)cc1C(N)=O	6	5	6.8	-15	12	5529	9
COc1ccc(CCC(=O)N2CCN(C(=O)c3ccccc3)CC2)cc1	4	14	3.9	-18	4	3675	6
CCc1ccc(NC(=O)c2cc(-c3cccs3)on2)cc1	2	0	3.1	-20	-4	4352	3
O=C(NCCCN1CCCC1=O)c1cc(NS(=O)(=O)c2ccc(F)cc2)cc(NS(=O)(=O)c2ccc(F)cc2)c1	-2	2	2.5	-16	5	9043	3
OCCC1CN(Cc2cccn2-c2cccnc2)CCN1Cc1ccccc1 (stereo not drawn)	-7	-4	1.3	-11	-4	3998	-12

More structures follow:
SMILES	BJeLR lethal	ugtP null kill	RN4220 kill	PrP 5UTR inh	Mtb hypoxia rep	Autofluor counter	Mtb hypoxia rep growth
CCCn1nc2cc(C(=O)NCc3ccccc3OC)ccc2c1OCC	9	2	2.6	-17	2	3061	7
O=C(COC(=O)COc1ccc(Cl)cc1Cl)NC1CCCC1	.	-2	5.0	-13	0	5670	3
Cn1c(SCC(=O)Nc2nncs2)nnc1C1CC1	12	-1	2.2	-25	0	?	-6
Cc1cc(C)cc(C(=O)NCC(=O)OCC(=O)N2CCCCC2)c1	4	-1	1.6	-35	6	4232	1
CCC(=O)Nc1cccc(-c2ccc(N3CCCCC3)nn2)c1	6	1	-0.1	-36	2	5741	-5
COC(=O)c1ccc2c(=O)[nH]c(COC(=O)c3[nH]c(C)c(C(C)=O)c3C)nc2c1	.	-1	9.9	-16	-2	4794	-1
CN1C(=O)S/C(=C/c2cccn2-c2cccc(C(=O)O)c2)C1=O	-13	.	.	-19	.	3818	.
O=C(CSC1=NC(=O)C(c2ccccc2)C(=O)N1)Nc1cccc(Cl)c1 (stereo not drawn)	1	5	4.5	-13	.	4448	.

More entries follow:
SMILES	BJeLR lethal	ugtP null kill	RN4220 kill	PrP 5UTR inh	Mtb hypoxia rep	Autofluor counter	Mtb hypoxia rep growth
Cc1[nH]nc(C(F)(F)F)c1CCC(=O)NC1CCCCCC1	.	-5	2.0	-7	-4	4369	-4
COc1ccc(OCCCC(=O)OCC(=O)N2CCN(S(=O)(=O)c3ccc(C)cc3C)CC2)cc1	.	-1	4.7	-6	6	6143	4
O=C(COc1ncnc2ccccc12)N1CCN(c2ccccc2)CC1	7	2	1.8	-8	4	4360	15
CCOC(=O)/C(C(C)=O)=C1\OC(=O)c2ccccc21	-7	12	3.5	-7	8	8354	-1
COc1ccccc1N(CC(=O)Nc1cccnc1)S(C)(=O)=O	-4	4	1.1	-15	5	10064	-2
NNC(=O)c1cccn(Cc2cccc(C(F)(F)F)c2)c1=O	-5	-1	-0.6	4	3	2892	6
CC(=NNc1nc2ccccc2[nH]1)c1ccc2c(c1)OCCO2	.	-2	3.2	.	-15	.	-7
CCc1nnc(NC(=O)C2Cc3ccccc3C(=O)O2)s1 (stereo not drawn)	13	0	2.5	-20	-7	6342	-2

Going on with the list.
SMILES	BJeLR lethal	ugtP null kill	RN4220 kill	PrP 5UTR inh	Mtb hypoxia rep	Autofluor counter	Mtb hypoxia rep growth
CCCn1c(SCC(=O)Nc2cccc(NC(C)=O)c2)nnc1C(C)C	7	9	1.6	-14	.	3867	.
COc1cc(OC)c(-c2nn3c(-c4ccco4)nnc3s2)cc1OC	.	-16	2.6	-36	1	9666	9
C[C@@H]1CN([C@@H](C)CO)C(=O)Cc2cc(NS(=O)(=O)c3ccccc3)ccc2O[C@H]1CN(C)S(C)(=O)=O	.	-7	-13	-1	4	3645	8
N#CC1=C(N)OC2=C(C(=O)CCC2)C1c1ccncc1 (stereo not drawn)	.	7	-1.0	-3	.	4606	.
